Compound activity (PubChem)
HCMV UL50-53 inh = inhibitors of HCMV UL50-UL53 interaction, biochemical, HTRF; HCMV UL50-UL53 nuclear egress complex (human cytomegalovirus); normalized percent inhibition; inhibition, % (concentration not given with the values); 0.15% of 190,000 active; AID 1918969, 2023;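 active = both replicates at 50% or more, plus weaker picks with an unusually low signal ratio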;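 note: stock transfer was 100 nL into about 20 µL; 0% = negative control wells and 100% = wells with untagged competitor protein; inactives centre near -12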
GIV-Gai inh = inhibitors of GIV peptide binding to Galpha-i3, primary screen, biochemical, fluorescence polarization, FITC-GIV GBA peptide, rat Galphai3. Guanine nucleotide-binding protein G(i) subunit alpha-3 (Rattus norvegicus), P08753. 90 min; hits give low values; scaled: aluminum fluoride 0%, vehicle 100%. percent of control (FP), % (no concentration beside the values). 0.42% of 210,000 active;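 active = replicate mean at 85% of control or lower, very high polarization wells dropped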;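 note: wells of about 15 µL received 100 nL stock; the first replicate is given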
Target sequence (P08753 whole entry, looked up): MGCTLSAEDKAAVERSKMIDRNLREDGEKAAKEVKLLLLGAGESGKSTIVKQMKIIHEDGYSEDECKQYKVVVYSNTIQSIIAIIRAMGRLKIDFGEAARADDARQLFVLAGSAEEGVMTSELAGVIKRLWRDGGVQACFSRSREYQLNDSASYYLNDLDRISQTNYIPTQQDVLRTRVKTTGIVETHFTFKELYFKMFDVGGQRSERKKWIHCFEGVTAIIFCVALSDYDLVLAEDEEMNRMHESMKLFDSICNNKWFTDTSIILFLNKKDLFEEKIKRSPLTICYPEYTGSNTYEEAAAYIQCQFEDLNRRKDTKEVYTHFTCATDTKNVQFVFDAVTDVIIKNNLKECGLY
Sa growth 42C = S. aureus growth inhibition at 42 and 30 °C, primary screen, LtaS inhibitor project, RN4220, two temperatures. OD600, 20 h, 42 °C; hits give low values. relative growth, % (test concentration not listed). 0.53% of 170,000 active. AID 720641, 2013;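 active = growth at 42 °C up to 50% and 20 or more points under that at 30 °C, or under 10% at both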;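 note: 300 nL library stock went into each well; scaled to the means of positive and negative controls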
Sa growth 42C second temp = also measured in Sa growth 42C; calls as there; relative growth, %; measured here: growth at 30 °C;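 optical density after 20 h as mean of two plates; 100% = untreated growth and lower means inhibition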
* = called active by the depositor; · = not tested or not shown; & = joins results of further samples.

SMILES | HCMV UL50-53 inh | GIV-Gai inh | Sa growth 42C | Sa growth 42C second temp
Cn1c(=O)n(C)c2cc(SC3CCCCC3)c(NC(=O)c3ccccc3Br)cc21 | -10 | 109 | · | ·
CCNc1nc(NCC)n2c(SCC(=O)NC3=C(C(=O)OCC)C4CCCC4S3)nnc2n1 (stereo unspecified) | -10 | 105 | 109 | 88
COc1ccc(NC(=O)C(c2ccc(C)cc2)N(C)C(=O)c2ccc(=O)[nH]c2)cc1 (stereo unspecified) | · | 95 | 111 | 91
O=C(CC(=O)N1CCc2ccccc21)N1CCc2ccccc21 | -8 | 106 | · | ·
CCS(=O)(=O)c1ncc(CO)n1CCc1ccccc1 | -15 | 103 | 102 | 96
Cc1cc(C)c2c(CC(=O)Nc3cc(C(F)(F)F)ccc3Cl)coc2c1 | -7 | 108 | 110 | 88
Cc1c(C(=O)OCc2ccccc2)[nH]c2c1C(=O)CC(c1ccc(N(C)C)cc1)C2 (stereo unspecified) | -5 | 101 | 102 | 97
CCN(c1ccccc1)S(=O)(=O)c1c(C)nc2scc(C)n2c1=O | -8 | 101 | 91 | 89
CC1CCN(S(=O)(=O)c2ccc3c(c2)N(CC(=O)NCCCN2CCCCC2)C(=O)CS3)CC1 | · | 107 | 120 | 89
CCN(CCCNC(=O)CCc1nnc2n(Cc3ccccc3)c(=O)c3ccccc3n12)c1ccccc1 | -24 | 105 | · | ·
Cc1nc2sccn2c(=O)c1S(=O)(=O)Nc1ccc2c(c1)OCCO2 | · | 102 | 99 | 85
COc1ccc(CNC(=O)c2cncc(Br)c2)cc1 | -5 | 100 | 101 | 88
CC(NC(=O)NC1CCCCC1)c1ccc2c(c1)OCO2 (stereo unspecified) | -25 | 102 | 103 | 96
CCOC(=O)CC1NC(=O)c2ccccc21 (stereo unspecified) | 6 | 98 | 100 | 81
CC(=O)N1CN(CCCn2ccnc2)Cc2c1sc1c2CCCC1 | · | 106 | 103 | 90
CC1(C)CC(CCN)(Cc2ccccc2)CCO1 (stereo unspecified) | 2 | · | 124 | 81
Cc1ccc(OCC(O)CNCc2ccccc2)cc1C (stereo unspecified) | · | 105 | 91 | 84
CC(=NCCCn1ccnc1)c1c(C(F)(F)F)[nH]n(-c2nc3ccccc3s2)c1=O | 9 | 101 | 132 | 101
COc1ccc(Cn2ccc3nc(C)c(C(=O)NC4CCCCC4)cc3c2=O)cc1 | -9 | 104 | · | ·
CC(=C/C(=O)O)/C=C/c1ccccc1 | · | 99 | 92 | 106
Cn1nnnc1SCCNCc1ccc(OCc2ccccc2Cl)cc1 | 17&-14 | 113&99 | 87 | 87
CN1CCN(C(=O)CNC(=O)c2ccc(-c3ccccc3)cc2)CC1 | 3 | · | 108 | 96
COC(=O)c1ccc(N2CCc3ccccc32)s1 | -40 | 104 | 100 | 88
O=C(COC(=O)C1CCCN(C(=O)c2ccc(Cl)cc2)C1)c1ccc2c(c1)OCO2 (stereo unspecified) | -26 | · | 87 | 92
Cc1ccc(C)c(S(=O)(=O)NCCn2c(-c3ccncc3)nc3cccnc32)c1 | -21 | 105 | · | ·
CCN(CC)c1nc2c(c(=O)n(Cc3ccccc3)c(=O)n2C)n1Cc1ccccc1 | -26 | 103 | 94 | 75
CC(C)CNC(=O)CSc1nc(-c2ccc(F)cc2)cc(C(F)(F)F)n1 | · | 100 | 103 | 82
CCOc1ccc(C(=O)Oc2c(Sc3ccccc3)c(C)nn2C(C)(C)C)cc1OCC | -11 | 106 | 101 | 94
O=C(Nc1nnc(C2CC2)s1)Nc1ccccc1C(=O)Nc1nnc(C2CC2)s1 | -19 | · | 98 | 86
Clc1ccc(OCc2nc3c4ccccc4ncn3n2)cc1 | -14 | 103 | · | ·

Six compounds already listed, ordered by heavy-atom count, falling.
SMILES | HCMV UL50-53 inh | GIV-Gai inh | Sa growth 42C | Sa growth 42C second temp
CCN(CC)c1nc2c(c(=O)n(Cc3ccccc3)c(=O)n2C)n1Cc1ccccc1 | -26 | 103 | 94 | 75
O=C(COC(=O)C1CCCN(C(=O)c2ccc(Cl)cc2)C1)c1ccc2c(c1)OCO2 (stereo unspecified) | -26 | · | 87 | 92
O=C(Nc1nnc(C2CC2)s1)Nc1ccccc1C(=O)Nc1nnc(C2CC2)s1 | -19 | · | 98 | 86
CC(C)CNC(=O)CSc1nc(-c2ccc(F)cc2)cc(C(F)(F)F)n1 | · | 100 | 103 | 82
CN1CCN(C(=O)CNC(=O)c2ccc(-c3ccccc3)cc2)CC1 | 3 | · | 108 | 96
COC(=O)c1ccc(N2CCc3ccccc32)s1 | -40 | 104 | 100 | 88

(cont.)
SMILES | HCMV UL50-53 inh | GIV-Gai inh | Sa growth 42C | Sa growth 42C second temp
O=C(Nc1ccc2oc(-c3ccc4ccccc4c3)nc2c1)c1cc(Cl)ccc1Cl | 4 | 109 | 100 | 95
CCOC(=O)c1c(-c2ccccc2)csc1/N=C/c1nc(-c2ccco2)oc1O | -19 | 108 | 92 | 87
CC(C(=O)Nc1nc2ccc(S(=O)(=O)N3CCOCC3)cc2s1)N1C(=O)c2ccccc2C1=O (stereo unspecified) | -22 | 104 | 93 | 82
CCc1ccc(NS(=O)(=O)c2ccc(NC(=O)N3CCCC3)cc2)cc1 | · | 102 | 135 | 83
O=C(NCc1ccc(Cl)cc1)c1cc(-c2cccnc2)nc2ccccc12 | -9 | 112 | · | ·
CC(=O)NC(C)c1nc2ccccc2n1Cc1ccccc1Cl (stereo unspecified) | -8 | 103 | 108 | 88
CCOc1ccc(OCCNCc2cn(CCC#N)nc2-c2ccccc2)cc1 | 22 | · | 119 | 98
Cc1csc2nc(COc3ccccc3NC(=O)C(C)Oc3ccccc3)cc(=O)n12 (stereo unspecified) | -10 | 101 | · | ·
CCOc1cc(N2CCOCC2)c(OCC)cc1NC(=O)c1c(C)nn(-c2ccccc2)c1C | 0 | · | 107 | 90
CCCNc1ncnc2c1cnn2C | -2 | 98&100 | 98 | 89
CCc1ccccc1NC(=O)Cn1c(=O)n(CCCS(=O)(=O)C2CCCCC2)c(=O)c2ccccc21 | 3 | 107 | 97 | 93
COc1ccc(-c2nc3scc(CCNC(=O)Cc4ccc(F)cc4)n3n2)cc1 | · | 100 | 110 | 80
O=C(Nc1ccccc1)Nc1cccc(-c2nnco2)c1 | -24 | 106 | 85 | 80
Cc1ccc(C)n1CC(F)(F)F | -17 | · | 99 | 78
N/C(Cc1ccc(-c2csnn2)cc1)=N\OC(=O)C1CC1 | -18 | 111 | 97 | 89
CC(C)NC(=S)N1CCN(S(C)(=O)=O)CC1 | -8 | 100 | 108 | 93
CN(C(=O)CSc1nnc2c(Cl)cc(Cl)cn12)C1CCS(=O)(=O)C1 (stereo unspecified) | -22 | · | 97 | 92
c1ccc2c(CNc3ncn[nH]3)cccc2c1 | -28 | 105 | 119 | 78
Cc1cc(NNC(=O)Nc2cccc(Cl)c2)nc2c1c(C)nn2C | -3 | 105 | 96 | 100
CCn1c(=N)c(C(=O)NC2CCCC2)cc2c(=O)n3cc(C)ccc3nc21 | -72 | 103 | 97 | 91

Individual results from above.
GIV-Gai inh, `COc1ccc(-c2nc3scc(CCNC(=O)Cc4ccc(F)cc4)n3n2)cc1` stands at 100
GIV-Gai inh, `c1ccc2c(CNc3ncn[nH]3)cccc2c1` stands at 105

Further structures follow:
SMILES | HCMV UL50-53 inh | GIV-Gai inh | Sa growth 42C | Sa growth 42C second temp
CC(Oc1ccccc1)C(=O)Nc1c(C(=O)N2CCCC2)oc2ccccc12 (stereo unspecified) | -15 | 103 | 102 | 75
O=C1CC(C(=O)Nc2cccc(C(=O)O)c2)C(c2ccccc2)O1 (stereo unspecified) | 9 | 105 | 106 | 103
Cc1cc(CNC(=O)NCC2CCCO2)c(C)n1-c1ccc(F)cc1 (stereo unspecified) | 5 | 107 | · | ·
N#CCCN1CCN(S(=O)(=O)c2ccc(C#N)cc2)CC1 | · | 104 | 78 | 92
O=c1c2ccccc2nnn1CSc1nc2ccccc2c(=O)n1CC1CCCO1 (stereo unspecified) | -3 | · | 83 | 98
O=c1oc(-c2ccncc2)nc2sc3c(c12)CCCCC3 | -18 | 105 | · | ·
CCOC(=O)c1cccc(NC(=O)COc2ccc3c(C)cc(=O)oc3c2)c1 | -42 | 107 | 98 | 91
CN1CCN(C(=O)c2ccc3c(c2)N(Cc2cccc(Cl)c2)C(=O)c2ccccc2S3(=O)=O)CC1 | · | 95 | 113 | 92
O=C(CCn1c(=O)c2cccn2c2cccnc21)N1CCN(c2ccccc2F)CC1 | · | 101 | 100 | 84
Cc1cc2oc(C(=O)Nc3ccc(S(=O)(=O)Nc4onc(C)c4C)cc3)cc(=O)c2cc1C | -67 | 100 | 93 | 94

Copied from above for reference:
SMILES | HCMV UL50-53 inh | GIV-Gai inh | Sa growth 42C | Sa growth 42C second temp
Cc1cc(NNC(=O)Nc2cccc(Cl)c2)nc2c1c(C)nn2C | -3 | 105 | 96 | 100
CCn1c(=N)c(C(=O)NC2CCCC2)cc2c(=O)n3cc(C)ccc3nc21 | -72 | 103 | 97 | 91
CC(Oc1ccccc1)C(=O)Nc1c(C(=O)N2CCCC2)oc2ccccc12 (stereo unspecified) | -15 | 103 | 102 | 75
O=C1CC(C(=O)Nc2cccc(C(=O)O)c2)C(c2ccccc2)O1 (stereo unspecified) | 9 | 105 | 106 | 103
Cc1cc(CNC(=O)NCC2CCCO2)c(C)n1-c1ccc(F)cc1 (stereo unspecified) | 5 | 107 | · | ·
N#CCCN1CCN(S(=O)(=O)c2ccc(C#N)cc2)CC1 | · | 104 | 78 | 92

The list goes on.
SMILES | HCMV UL50-53 inh | GIV-Gai inh | Sa growth 42C | Sa growth 42C second temp
CCC(C(=O)NCCCN1CCCC1)N1CCN(Cc2ccc(F)cc2)C(=O)C1=O (stereo unspecified) | -23 | 106 | · | ·
CCN(CC)c1cc(N(CC)c2ccccc2)c([N+](=O)[O-])c2nonc12 | -50 | 106 | · | ·
CNC(=O)N(O)C1N(NC(=O)Nc2ccccc2)C(=S)SC1(C)C (stereo unspecified) | 7 | 103 | 102 | 99
Cc1ccc2nc(CSc3nnc4ccccn34)cc(=O)n2c1 | -40 | · | 94 | 98
Nc1ncnc2c1ncn2C1O[C@H](COP(=O)(O)O)[C@@H](O)[C@H]1O (stereo partly specified) | -39 | · | 81 | 77
Cc1ccc(C(=O)Nc2nnc(S(=O)(=O)N3c4ccccc4CC3C)s2)cc1 (stereo unspecified) | -7 | 105 | 119 | 91
COc1ccc2cc(C(=O)NCc3ccc4c(c3)CCN4C(=O)c3ccc(C)cc3)[nH]c2c1 | · | 105 | 114 | 97
CC1CCN(C(=O)c2c(NC(=O)c3ccccc3F)sc3c2CCC(C(C)(C)C)C3)CC1 (stereo unspecified) | 11 | 109 | 105 | 96
CCCCOC(=O)C1=C(C)N(C)C(=O)NC1c1cc2c(cc1Br)OCO2 (stereo unspecified) | 0 | 109 | · | ·
CCCOc1ccccc1C1NC(=O)NC(C)=C1C(=O)OCc1ccc2c(c1)OCO2 (stereo unspecified) | -3 | 100 | · | ·
CN1CCN(c2ccc(Nc3ccnc4cc(Cl)ccc34)cc2Cl)CC1 | -37 | · | 98 | 49
Cc1cc2nc(C)n(CCCNC(=O)Nc3cccc4ccccc34)c2cc1C | · | 96 | 161 | 80
Cc1ccc(C)c(OCc2nnc(SCc3nc4ccccc4s3)o2)c1 | -10 | · | 102 | 89
CC(=O)Nc1nnc(SCc2cc(=O)c3cc(C)ccc3[nH]2)s1 | · | 105 | 112 | 94
CC(=O)N1c2c(cc(Br)cc2S(=O)(=O)N2CCN(C(=O)c3ccco3)CC2)CC1C (stereo unspecified) | -3 | 104 | 89 | 94
COc1ccc(-c2cc(C(=O)Nc3ccc4c(c3)C(=O)N(C)C3=NCCN34)c3ccccc3n2)cc1 | -10 | 101 | · | ·
Cc1ccc(-n2nc(C(=O)O)c(C)c(C#N)c2=O)cc1 | -97 | 104 | 100 | 93
CC(C)NC(=O)Oc1noc2cc(Cl)ccc12 | -20 | 103 | 85 | 90
C#CCSc1ncc(C(=O)O)c(C(OC)OC)n1 | -34 | 101 | 91 | 79
O=C1C2C3c4ccccc4C(c4ccccc43)C2C(=O)N1CCN1CCCCC1 (stereo unspecified) | 4 | 106 | 92 | 97
CCN(CC)C(=O)Cn1c2cc(OC)c(OC)cc2c2nc3n(c(=O)c21)CCS3 | -20 | 104 | 89 | 89

Record cards (already shown). Values in the order: HCMV UL50-53 inh | GIV-Gai inh | Sa growth 42C | Sa growth 42C second temp
Shown for Cc1ccc(C)c(OCc2nnc(SCc3nc4ccccc4s3)o2)c1 → -10 | · | 102 | 89
Shown for O=C1C2C3c4ccccc4C(c4ccccc43)C2C(=O)N1CCN1CCCCC1 (stereo unspecified) → 4 | 106 | 92 | 97
Shown for CC(C)NC(=O)Oc1noc2cc(Cl)ccc12 → -20 | 103 | 85 | 90
